gsp antagonist – antagonists of gsp mutant (McCune-Albright syndrome). gsp-mutant cells, cAMP HTRF, 30 min; control for the full effect not named in the record. Potency, µM (titrated, usually from 76.9 µM), for inactives: top-dose activity change, negative = inhibition, usual class: inhibitors. 340,000 tested, 0.4% active. AID 624288; active = falling curve of any shape with a large fitted effect; inconclusive = falling curve, mostly with a smaller effect; inactive = flat or rising curve; cell line not stated here;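 further: intracellular cAMP measured with PDE inhibitor Ro 20-1724 present during compound exposure; potency means the concentration at half of the fitted maximal effect; on the % scale 0 is the no-effect control and ±100 the full control effect; nearly all actives have a fitted effect of over 65% in size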
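Measurement of cellular cAMP by homogeneous time-resolved fluorescence following a 30 min compound exposure at 37C. The PDE inhibitor […] was present throughout; the assay buffer was DPBS with 0.05% BSA and 0.005% Tween 20.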
gsp ag – agonists of gsp mutant (McCune-Albright syndrome). gsp mutant cells, cAMP HTRF, 30 min; control for the full effect not named in the record. Potency, µM (top dose mostly 76.9 µM), without a hit: at the top dose activation (cAMP increase), usual class: activators. 340,000 tested, 0.13% active. AID 624287; active = well fitted activation curve with a large enough effect; inconclusive = small, poorly fitted or top-dose-only effect, or another doubt; inactive = no such curve, though single readings can be large or run the other way; cell line not stated here;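 further: phosphodiesterase inhibitor Ro 20-1724 added with compounds to block cAMP breakdown; potency means the concentration at half of the fitted maximal effect; nearly all actives have a fitted effect of over 60% in size; about a fifth of the inactives were tested at one dose only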
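Cells in DMEM/10% FBS with G418 were pretreated with compounds in DMSO plus […] (300 uM stock) for 30 min at 37C. cAMP was measured by HTRF (cAMP-d2 plus anti-cAMP antibody-K) after 30 min at room temperature.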
ClpP mod – qHTS Assay for Activators of ClpP | purified B. subtilis ClpP, FRET peptide cleavage, 20 min | Potency, µM (titrated, usually from 57.5 µM), for the others: at the highest dose activity change, negative = active | 340,000 tested, 1.9% active; active = well fitted falling curve with a large enough effect; inconclusive = small, poorly fitted or top-dose-only effect; inactive = no such curve, though single readings can be large or run the other way; further: potency means the concentration at half of the fitted maximal effect; the source files actives as falling curves though it sought activators and does not explain the sign; nearly all actives have a fitted effect of over 65% in size; many hits overshoot -100%
Target sequence (P80244 whole entry, looked up): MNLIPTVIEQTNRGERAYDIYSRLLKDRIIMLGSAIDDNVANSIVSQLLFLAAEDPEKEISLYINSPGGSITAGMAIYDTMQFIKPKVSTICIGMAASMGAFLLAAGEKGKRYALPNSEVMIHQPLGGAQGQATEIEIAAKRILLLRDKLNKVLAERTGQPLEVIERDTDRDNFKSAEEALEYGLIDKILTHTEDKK
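FRET quenching reversal measured ClpP activation: 10 microg/mL B. subtilis ClpP at pH 8 with the FRET-FV decapeptide, read at 430 nm after 320 nm excitation. The 20-min minus 0-min signal was scaled between DMSO/no-enzyme wells and ADEP (5.8 microM final).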
Menin MLL FP FL – menin-MLL binding inhibition, fluorescein peptide | Fluorescence polarization, fluorescein-MLL peptide displacement from menin | FP activity change, % at 61.4 µM | 290,000 tested, under 10 active | AID 1766; inconclusive = falling polarisation curve, or a change in total fluorescence; inactive = total fluorescence flat and polarisation flat or rising; no compound was filed as active; the % refers to the polarisation; negative = inhibition;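 further: % of control where 0% means no effect; inhibitors lower the polarisation; unlabelled MLL peptide was the positive control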
TRPML1 ag – agonists of human TRPML1 channel; Q9GZU1; TRPML1-expressing cells, Ca2+ dye fluorescence, FDSS; host cell line not named in the record; reference of the full effect not given here; activation, % (no concentration beside the values); 410,000 tested, 0.12% active; AID 624414; in the data active = activation above about 50%; inconclusive = about 30% to 50%; inactive = below about 30%; further: 0% is about no effect; the text of the record puts the active cut at 80%
Target sequence (Q9GZU1 whole entry, looked up): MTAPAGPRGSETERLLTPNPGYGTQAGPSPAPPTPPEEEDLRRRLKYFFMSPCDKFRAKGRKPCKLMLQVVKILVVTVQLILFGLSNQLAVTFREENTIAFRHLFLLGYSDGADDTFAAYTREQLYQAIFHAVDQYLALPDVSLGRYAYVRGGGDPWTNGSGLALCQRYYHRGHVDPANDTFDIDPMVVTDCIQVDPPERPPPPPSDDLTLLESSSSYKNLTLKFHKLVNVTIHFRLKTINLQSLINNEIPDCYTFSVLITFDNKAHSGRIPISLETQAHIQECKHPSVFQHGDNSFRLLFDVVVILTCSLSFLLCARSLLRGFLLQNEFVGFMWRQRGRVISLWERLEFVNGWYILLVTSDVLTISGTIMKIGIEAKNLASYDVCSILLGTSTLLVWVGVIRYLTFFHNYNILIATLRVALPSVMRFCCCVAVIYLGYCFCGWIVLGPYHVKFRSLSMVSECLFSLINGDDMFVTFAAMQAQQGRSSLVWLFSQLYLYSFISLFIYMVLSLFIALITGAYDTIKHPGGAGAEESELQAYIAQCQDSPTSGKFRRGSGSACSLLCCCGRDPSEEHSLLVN
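Tet-induced TRPML1-DL cells, 1,500 per well, cultured overnight, were loaded with a no-wash Ca2+ dye for 45–90 min. Calcium fluorescence was recorded on the FDSS for 110 s after compound addition, before the EC80 agonist (4 uM 54-4) was added.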
TRPML1 inh – human mucolipin-1 channel inhibition; 390,000 tested, 0.02% active; activity change, negative = inhibition, % (test concentration not listed); Q9GZU1; AID 624415; TRPML1-inducible cells, Ca2+ dye fluorescence, FDSS; hits give low values; inhibition of EC80 agonist-evoked calcium signal; in the data active means activity change below about -50%; inconclusive means about -30% to -50%; inactive means above about -30%;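 further: stimulus is agonist 54-4 at its EC80 concentration; on the % scale 0 is the no-effect control and ±100 the full control effect; compound concentration not given in the record; the text of the record puts the active cut at -80%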
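Tet-induced TRPML1-DL cells loaded with Ca8 no-wash calcium dye were read kinetically on FDSS. Compound addition was followed by EC80 agonist 54-4 (4 uM final); inhibition was read over 110 s.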
An asterisk follows results filed as active; ? = inconclusive; · = not tested or not shown; [ ] = dose if it differs, or a comment.

SMILES	gsp antagonist	gsp ag	ClpP mod	Menin MLL FP FL	TRPML1 ag	TRPML1 inh
Cc1ccc(/C=C/c2onc(C)c2S(=O)(=O)N2CCC(C(=O)N3CC(C)Oc4ccccc43)CC2)cc1 (centres undefined)	·	·	?	·	0.6	15
CCn1cc(C2=NC(CCSC)CO2)c2ccccc21 (centres undefined)	1%	16%[15.4 µM]	·	-2.2	1.6	6
Cc1c(N=Cc2ccccn2)c(=O)n(-c2ccccc2)n1C	-9%	-1%	-0.2%	0.2	-0.5	7
Brc1cccc(OCCN2CCc3ccccc3C2)c1	9%	-9%	-1.5%	0.3	2.2	7
CN(C)c1ccc(CN(CC2CCCO2)C(=O)c2cc3ccccc3o2)cc1 (centres undefined)	-13%	-9%	-7.6%	·	1.6	9
CCOC(=O)Nc1ccc(C)cc1Br	2%	-21%	9.0%	2.0	6.1	24
Cn1cnc([N+](=O)[O-])c1Sc1nc(N)nc2c1ncn2C1OC(CO)C(O)C1O (centres undefined)	-4%	18%	-1.0%	·	0.1	-19
Cc1ccc(NC(=O)C(C)OC(=O)CCNS(=O)(=O)c2ccc(C)cc2)cc1 (centres undefined)	-1%	4%[15.4 µM]	32µM*	3.4	1.1	2
CCNc1nc(NC(C)C)nc(OCCOC(=O)Nc2ccccc2)n1	1%	-62%[inhibitor]	0.6%	3.9	0.2	-5
CC(=O)N1CCCc2cc(S(=O)(=O)N3CCC(C(=O)NCc4ccc(C)cc4)CC3)ccc21	·	·	0.1%	·	0.3	23
COc1cccc2c1OC1(C)CC2NC(=O)N1c1cccc(C(=O)N2CCN(c3ccccc3)CC2)c1 (centres undefined)	-10%	-15%[15.4 µM]	·	-2.4	-0.6	-6
N#CNC(=Nc1cccc(F)c1)SCc1ccccc1F	-27%	-1%	-0.6%	2.1	0.6	13
Cc1ccc2c(C(=O)CN3CCN(C(=O)c4ccco4)CC3)c(C)[nH]c2c1	-13%	4%[15.4 µM]	0.6%	1.0	-0.5	1
Cc1ccc(NC(=O)c2ccccc2NC(=O)c2cccs2)cc1	-4%	4%	·	-4.4	3.4	-13
COC(=O)/C=C/S(=O)(=O)c1ccc(NC(C)=O)cc1	12%	-2%	-3.2%	0.9	0.0	-6
COc1cccc(S(=O)(=O)NCC(=O)N2CCCCCC2)c1	7%	-36%[inhibitor]	1.7%	3.2	·	·
NC(=O)COc1ccc(=O)n(-c2ccccc2)n1	15%	-61%[inhibitor]	0.8%	9.6	-0.6	34
CCOc1ccccc1NC(=O)CCCc1ccc(OC)c(C)c1	-9%	-31%[inhibitor]	1.7%	1.0	1.9	-1
C/C(Nc1ccc(F)cc1)=C(/C#N)C(N)=O	1%	-22%	-1.2%	2.7	-0.4	-6
Cc1cc(C(=O)CCl)c(C)n1Cc1ccco1	-6%	-19%[15.4 µM]	-0.2%	-2.1	-0.6	6
CC1CCCCN1C(=O)COC(=O)c1cc([N+](=O)[O-])ccc1N1CCOCC1 (centres undefined)	16%	-2%[15.4 µM]	1.9%	·	-0.3	5
CCOC(=O)C1CCCN(C(=S)Nc2ccc(OC)cc2)C1 (centres undefined)	6%	-10%	-1.7%	8.0	-0.1	15
CC(Sc1nnc(CNC(=O)c2ccccc2F)n1C)C(=O)Nc1nccs1 (centres undefined)	3%	-36%[inhibitor]	·	1.8	-0.3	84
COc1ccc(CNS(=O)(=O)c2c(C)[nH]c(C)c2C(=O)N2CCCCC2)cc1	9%	-2%	-1.5%	2.4	1.1	-1
CCn1c(N)c(C(=O)NCC2CCCO2)sc1=S (centres undefined)	-6%	?	1.5%	2.4	-0.6	-6

Next part, overlapping the part above by four compounds.
SMILES	gsp antagonist	gsp ag	ClpP mod	Menin MLL FP FL	TRPML1 ag	TRPML1 inh
CCOC(=O)C1CCCN(C(=S)Nc2ccc(OC)cc2)C1 (centres undefined)	6%	-10%	-1.7%	8.0	-0.1	15
CC(Sc1nnc(CNC(=O)c2ccccc2F)n1C)C(=O)Nc1nccs1 (centres undefined)	3%	-36%[inhibitor]	·	1.8	-0.3	84
COc1ccc(CNS(=O)(=O)c2c(C)[nH]c(C)c2C(=O)N2CCCCC2)cc1	9%	-2%	-1.5%	2.4	1.1	-1
CCn1c(N)c(C(=O)NCC2CCCO2)sc1=S (centres undefined)	-6%	?	1.5%	2.4	-0.6	-6
CC1(C)CC2CC(C)(CN2S(=O)(=O)c2cccc(C(N)=O)c2)C1 (centres undefined)	3%	-24%	1.7%	·	-0.1	29
Cc1ccccc1-c1nc(CN2CCC(C(=O)NCc3cccnc3)CC2)c(C)o1	9%	-4%	-0.6%	-0.1	-0.9	1
O=C(NCc1ccccc1Cl)C1CCC(CNc2c(N3CCOCC3)c(=O)c2=O)CC1 (centres undefined)	-16%	17%[15.4 µM]	·	3.7	-0.5	2
COc1cc(C2/C(=C(/O)c3ccccc3)C(=O)C(=O)N2c2ccccn2)ccc1O (centres undefined)	-2%	13%[15.4 µM]	·	5.8	0.0	-9
Nc1ccccc1NC(=O)NC(=O)c1ccccc1	-12%	-3%[15.4 µM]	1.4%	2.0	0.1	-1
O=C(N1CCCC1)N1CCN(S(=O)(=O)c2ccccc2)CC1	9%	11%[15.4 µM]	·	4.2	-0.2	-6
O=C(COc1ccc(F)cc1)N1c2ccccc2CCc2ccccc21	?	-41%	3.5%	4.8	3.1	15
O=C(Nc1cccc(S(=O)(=O)N2CCCCC2)c1)C1CC(=O)N(Cc2ccccc2)C1 (centres undefined)	-10%	-18%	-0.5%	·	0.8	0
O=C1C(NS(=O)(=O)c2cccs2)=C(N2CCN(c3cccc(C(F)(F)F)c3)CC2)C(=O)c2ccccc21	-16%	?	4.3%	1.9	0.5	58
Nc1nc(N)nc(-c2ccccc2)n1	1%	·	0.4%	0.1	-0.6	2
Fc1ccccc1-c1nc2nc3ccccc3nc2n1CC1CCCO1 (centres undefined)	-13%	-5%[15.4 µM]	·	5.1	1.1	-11
Cc1cccc(C2Nc3ccccc3C(=O)N2NC(=O)c2ccc([N+](=O)[O-])cc2)n1 (centres undefined)	3%	7%[15.4 µM]	-1.8%	4.8	0.3	3
CCc1ccc(-n2cnc3cc(C(=O)NCc4ccc(C)cc4)ccc32)cc1	·	·	-6.5%	·	1.8	17
O=C(COC(=O)C1CC(=O)N(Cc2ccccc2)C1)Nc1ccc(Cl)cc1F (centres undefined)	-11%	8%	-0.5%	1.9	-0.8	-1
O=[N+]([O-])c1cc(Cl)ccc1Sc1ccccn1	2%	3%	·	2.3	-0.7	8
CC[C@@H](C)CN1C(=O)N[C@@H](CCc2ccccc2)C(C(C)=O)=C1C	6%	·	-0.8%	-0.7[11.7 µM]	0.0	29
C[C@@H]1COC(=O)[C@@H](NC(=O)OCC2c3ccccc3-c3ccccc32)C/C=C\C[C@@H](CC(=O)N(CCO)Cc2ccccc2)C(=O)N1	-1%	·	-0.5%	·	-0.8	9
O=C(Nc1ccc(N2CCOCC2)nc1)c1ccc(C(F)(F)F)cc1	-7%	-4%[15.4 µM]	·	-9.9	0.6	-19
CN1CCN(/N=C/c2ccc(Cl)c(Cl)c2)CC1	18%	?	1.7%	6.9	1.6	-8
CCOc1cc(/C=C2\CN(C)C/C(=C\c3ccc(O)c(OCC)c3)C2=O)ccc1O	-20%	-12%	-2.2%	?	1.3	-1
Cc1ccc(C)c(NC(=O)c2cc3ccccc3o2)c1	-1%	14%	-2.0%	4.4	1.3	5
CC1CN(C(=S)Nc2ccc(Br)cc2)CC(C)O1 (centres undefined)	0%	-28%	-1.8%	1.3	1.0	-15
COc1cc(OC)c(OC)cc1CN1CCCC(C(=O)c2sccc2C)C1 (centres undefined)	-5%	9%[15.4 µM]	·	-3.5	1.1	13
Nc1nncn1C(=O)c1ccc(Cl)cc1Cl	-3%	15%[15.4 µM]	-3.1%	-8.1	-0.2	-23
O=[N+]([O-])c1cc(-c2ccc(/C=N/n3cnnc3)o2)ccc1Cl	-6%	?	1.6%	-1.6	-1.1	6
Following part.
SMILES	gsp antagonist	gsp ag	ClpP mod	Menin MLL FP FL	TRPML1 ag	TRPML1 inh
COc1ccc(C(CC(=O)Nc2ccccc2OC)n2cccc2)cc1 (centres undefined)	-6%	-6%[15.4 µM]	0.9%	3.9	-0.7	-12
COc1cccc2sc(N(CCCN(C)C)C(=O)C(c3ccccc3)c3ccccc3)nc12	4%	2%[15.4 µM]	·	-3.1	1.8	-10
CC1=C(C(N)=O)C(c2ccc(Br)cc2)n2ncnc2N1 (centres undefined)	2%	-1%	2.8%	-6.9	1.0	-10
O=C(NCC1CCCN1S(=O)(=O)c1cccs1)c1c(F)cccc1F (centres undefined)	-2%	-3%	-1.5%	·	-0.6	5
O=C(CCNC(=O)C1CCN(S(=O)(=O)c2ccccc2)CC1)NCc1ccccn1	9%	-1%	0.0%	·	0.0	5
O=C(Nc1nnc(Cc2ccc(Cl)cc2)s1)c1ccncc1	-5%	-26%	1.1%	1.2	2.0	24
COc1ccc(-c2nnc(SCC(=O)Nc3ccc4c(c3)OCCO4)n2N)cc1OC	4%	?	-0.2%	3.2	-0.1	0
COc1ccc(CCNC(=O)CN2CCN(Cc3ccc(F)cc3)C2=O)cc1OC	9%	?	-0.1%	-0.6	-0.6	-8
COC(=O)c1cc2ccc(OC)cc2c2cc(OC)c(OC)cc12	-15%	·	4.2%	·	1.3	-8
CCOC(=O)[C@@H]1[C@H]2COc3cc(OC)ccc3[C@@H]2N2C(=O)N(c3cccc(C)c3)C(=O)[C@@]12C	1%	·	0.4%	3.5	-0.2	2
Cc1c(S(=O)(=O)N2CCN(c3ccccc3)CC2)c(=O)n(C)c(=O)n1C	14%	10%[15.4 µM]	·	5.0	0.4	?
CC1=CCC(C(=O)O)C(C(=O)NC2CCCCC2)C1 (centres undefined)	6%	-11%[15.4 µM]	·	4.9	-0.1	-2
CCCCNC(=O)CN1C(=O)NC2(CCOc3ccccc32)C1=O (centres undefined)	16%	-2%[15.4 µM]	·	-2.0	-0.3	-5
Cc1ccc(OCC(O)CN2CCc3ccccc3C2)c(C)c1 (centres undefined)	-13%	6%	1.3%	·	-1.1	3

7 compounds already listed, ordered by the number in TRPML1 inh, rising:
SMILES	TRPML1 inh
Nc1nncn1C(=O)c1ccc(Cl)cc1Cl	-23
COc1ccc(CCNC(=O)CN2CCN(Cc3ccc(F)cc3)C2=O)cc1OC	-8
CCOc1cc(/C=C2\CN(C)C/C(=C\c3ccc(O)c(OCC)c3)C2=O)ccc1O	-1
Cc1ccc(NC(=O)C(C)OC(=O)CCNS(=O)(=O)c2ccc(C)cc2)cc1 (centres undefined)	2
Cc1cc(C(=O)CCl)c(C)n1Cc1ccco1	6
O=[N+]([O-])c1cc(Cl)ccc1Sc1ccccn1	8
CC1(C)CC2CC(C)(CN2S(=O)(=O)c2cccc(C(N)=O)c2)C1 (centres undefined)	29
